HPGD block: qHTS Assay for Inhibitors of HPGD (15-Hydroxyprostaglandin Dehydrogenase) | purified HPGD, NADH fluorescence kinetic, PGE2 substrate | Potency, µM, without a hit: at the top dose activity change, negative = inhibition, usual class: inhibitors | hit rate 4.3% among 150,000; active = well fitted inhibition curve with a large enough effect (not every such curve was filed as active); inconclusive = small, poorly fitted or top-dose-only effect, or another doubt; inactive = no such curve, though single readings can be large or run the other way;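 further: top concentration of the series not given in the record; plate controls included wells without enzyme; inactives centre near -10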
Target sequence (P15428 whole entry, looked up): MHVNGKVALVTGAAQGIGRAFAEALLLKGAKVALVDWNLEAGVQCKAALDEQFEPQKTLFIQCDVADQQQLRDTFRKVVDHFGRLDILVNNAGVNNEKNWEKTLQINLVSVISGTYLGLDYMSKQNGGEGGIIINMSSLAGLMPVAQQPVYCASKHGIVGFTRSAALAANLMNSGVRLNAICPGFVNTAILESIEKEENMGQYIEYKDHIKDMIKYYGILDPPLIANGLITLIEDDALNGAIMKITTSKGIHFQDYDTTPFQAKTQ
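NADH formation kinetics: reaction with 30 uM PGE2 and 1 mM NAD+ (final), 20 nM enzyme, Tris-HCl pH 8 with Tween 20, after 15 min compound preincubation at room temperature. Fluorescence change, last versus first of five reads.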
Starred values were filed as active, the others as inactive; ? = inconclusive; & = joins results of further samples. On the % scale 0 is the no-effect control and ±100 the full control effect; potency means the concentration at half of the fitted maximal effect.

compound	HPGD block
Cc1ccc(-n2c(O)c(/C=C/C=Nc3ccccc3)c(=O)[nH]c2=O)cc1	-15%
C=CCOC(=O)COc1cc(C)cc2oc(=O)c3c(c12)CCC3	?
O=C(Oc1ccccc1)N1CCC2(CCCN(Cc3nccs3)C2)CC1	-5%
COc1cccc(N2CCN(Cc3cccc(Cl)c3)CC2)c1	-13%
O=C(c1cccc(N2CCCC2=O)c1)N1CCC2(CC1)OCCO2	-16%
COC(=O)[C@@]1(OC)C[C@@H]2O[C@@]1(C)n1c3ccccc3c3c4c(c5c6ccccc6n2c5c31)C(=O)N(C)C4	-25%
O=C1CN=C(c2ccccc2)c2cc([N+](=O)[O-])ccc2N1	25µM*
COc1ccc(N2C(=O)CC(N3CCC(n4c(=O)[nH]c5ccccc54)CC3)C2=O)cc1 (centres undefined)	-12%
O=Cc1c(C(=O)O)n(Cc2ccc(Cl)cc2)c2ccccc12	-17%
COC(=O)[C@@]1(Cc2ccc(F)cc2)[C@H]2c3cc(C(=O)N(C)C)[nH]c3C[C@H]2CN1C(=O)c1ccccc1	-4%&-6%
O=c1[nH]c(=S)n(C2CC2)c(O)c1/C=N/N1CCOCC1	-5%
O=C(c1ccc(CNS(=O)(=O)c2ccccc2)cc1)N1CCC2(CC1)OCCO2	?
C[C@H](Br)C(=O)N[C@H](CO)C(=O)O	-11%
Cc1[nH]c2c(Cl)cccc2c1CCN	-14%
CCCCCCCSc1cc(OC)c(CCN(C)C)cc1OC	-21%
C[C@@H]1O[C@@H](O[C@H]2C[C@@H](O)[C@@]3(CO)[C@H]4[C@H](O)C[C@]5(C)[C@@H](C6=CC(=O)OC6)CC[C@]5(O)[C@H]4CC[C@@]3(O)C2)[C@@H](O)[C@H](O)[C@H]1O	-7%
COc1ccc(C[C@@H]2C(=O)N[C@H](C)C(=O)N(C)[C@@H]3C(=O)N(C)[C@@H](Cc4ccc(O)c(c4)Oc4ccc(cc4)[C@H]3O)C(=O)N[C@@H](C)C(=O)N[C@H](C)C(=O)N2C)cc1	-1%
BrCCBr	-3%
Clc1ccc(CSC(Cn2ccnc2)c2ccc(Cl)cc2Cl)cc1 (centres undefined)	-15%&-2%
Cc1ccc(N2C(=O)NC(=O)/C(=C/c3cnn(-c4ccc(C)cc4)c3)C2=O)cc1	?
CC(=O)OC1(Cc2ccccc2)CN2CCC1c1ccccc12 (centres undefined)	-9%
N=C1C(c2ccccc2)=C(O)CN1Cc1ccco1	-9%
Fc1ccc2c(c1)nnn2C1CCN(Cc2ccccc2)CC1	-15%
COc1cc(N)c(Cl)cc1C(=O)N[C@@H]1CN2CCC1CC2	0%
CC(=O)[C@@H]1CC[C@H]2[C@H]3CC[C@H]4C[C@@H](O)CC[C@]4(C)[C@@H]3C(=O)C[C@@]12C	-1%
C1=C(CCNCc2ccccc2)CCCC1	-2%
O=[N+]([O-])c1cc2c(cc1CNCCc1ccc3c(c1)OCO3)OCO2	-3%
CCCCC/C=C\C/C=C\C/C=C\C/C=C\CCCC(=O)NCCc1ccc(O)c(O)c1	?
C[N+]1(C)[C@@H]2CC[C@H]1CC(OC(=O)[C@@H](CO)c1ccccc1)C2 (some centres undefined)	-4%
CCN(CC)CCNCc1nc2ccccc2c(=O)n1-c1ccc(F)cc1	-5%
CCc1cccc(C)c1NC(=S)N1CC2CC(C1)c1cccc(=O)n1C2 (centres undefined)	-4%
COc1ccc(C[C@@H]2c3cc(O)c(OC)cc3CCN2C)cc1O	-3%
N#CS.N=C=S.N=C=S.[Cu].[NH2-].[NH2-].[NH2-].[NH2-].c1ccc2ncccc2c1	-3%
COc1ccc(CCn2c(O)c(C=NCc3ccc4c(c3)OCO4)c(=O)[nH]c2=O)cc1OC	-4%
C=CCN1C(=O)/C(=C/c2cccs2)C(=O)NC1=S	3.2µM*
CCCCCCCCCCCCCl	1%
CN1CCC2(CC1)CCN(C(=O)c1ccco1)CC2	-8%
Cc1ccc(S(=O)(=O)Nc2cc(C(=O)N3CCC4(CC3)OCCO4)ccc2N2CCCCC2)cc1	-25%
Cc1nn(C2CCOC(C)(C)C2)c2c1C(c1ccc(OC(C)C)cc1)SCC(=O)N2 (centres undefined)	-10%
NC(=O)CN1CC(c2ccccc2)CC1=O (centres undefined)	-11%
N=C1c2ccccc2CN1NC(=O)c1ccc(Br)cc1	?
ClC(Br)Br	-4%
CC(=O)C1C2c3ccccc3OC1(C)N=c1s/c(=C/c3cnn(C)c3)c(=O)n12 (centres undefined)	-10%
Nc1c(C(=O)OCC2CCCO2)c2nc3ccccc3nc2n1Cc1cccs1 (centres undefined)	?
CC(=NCc1ccco1)c1c(O)n(-c2ccccc2)c(=O)[nH]c1=O	-14%
CCN1CCN(Cc2cc(Br)ccc2O)CC1	-14%
Fc1ccccc1CCNCc1cccc2ccccc12	?
CN1CCN(c2nc(N(C)C)oc(=O)c2C#N)CC1	-4%
Cc1cc(C(=O)N2CCC3(CC2)OCCO3)cs1	?
CN=C=O	-11%

(cont.)
compound	HPGD block
O.O.[NH-]C1(C(=O)O)CCCC1.[NH-]C1(C(=O)O)CCCC1.[Ni+2]	-8%
COc1ccc(N=C(C)c2c(O)n(C)c(=O)n(C)c2=O)c(OC)c1	-26%
Cc1ccccc1-c1nc(CS(=O)CC(=O)N2CCC3(CC2)OCCO3)c(C)o1 (centres undefined)	?
COC1=CCC2([N+](=O)[O-])CN(C)CC1([N+](=O)[O-])C2 (centres undefined)	-8%
CCCN(CCC)CCc1c[nH]c2ccc(C(N)=O)cc12	-24%
Cc1cccn2c(=O)c3c(nc12)N1CCC(Cc2ccccc2)CC1C1(C3)C(=O)N(C)C(=O)N(C)C1=O (centres undefined)	?
CC1N(P(=O)(c2ccccc2)c2ccccc2)CC(O)(c2ccccc2)CC12CC2 (centres undefined)	-7%
CC(C)CN1CC[C@@]2(CCCN(C(=O)Oc3ccccc3)C2)C1	-4%
CCOC(=O)C1=C(C)c2ccccc2OC1(C(=O)OCC)c1ccccc1 (centres undefined)	-5%
c1ccc(C2=NP(N3CCOCC3)(N3CCOCC3)=NC(N3CCOCC3)=N2)cc1	1%
CCN(CC)CCN=C(C)c1c(O)n(-c2ccccc2OC)c(=O)[nH]c1=O	-6%
CC(=NCCN1CCCCC1)c1c(O)n(-c2ccc(Cl)cc2)c(=O)[nH]c1=O	-2%
COc1ccccc1N1C(=O)NC(=O)C(CCc2ccncc2)(CCc2ccncc2)C1=O	-10%
c1ccc2sc(SNC3CCCCC3)nc2c1	?
CC1(C)C(O)CC(O)[C@]2(C)C1CC(=O)[C@]1(C)C2CC[C@@]2(C)C(c3ccoc3)OC(=O)C3OC321 (some centres undefined)	-17%
Clc1cc(I)cc(Cl)c1NC1=NCCN1	-22%
Cc1ccc2c(c1)CC1(CN2C)C(=O)NC(=O)N(c2cccc(C)c2C)C1=O (centres undefined)	-21%
CCCCn1c(O)c(C(C)=NCc2cc(OC)cc(OC)c2)c(=O)[nH]c1=O	-18%
Cc1ccc(S(=O)(=O)O[C@H]2CN3CCC2CC3)cc1	-8%
Cc1ccc([N+](=O)[O-])cc1	-16%
COc1cc2c(cc1OC)CN(c1ccc([N+](=O)[O-])c(C(F)(F)F)c1)CC2	-14%
ClC1C(Cl)C(Cl)C(Cl)C(Cl)C1Cl (centres undefined)	-5%&-6%
CCC(CO)NC(=O)C1C=C2c3cccc4[nH]cc(c34)CC2N(C)C1 (centres undefined)	?
ClCC(Br)CBr (centres undefined)	-12%
CC1CCN2c3nc4ccccn4c(=O)c3CC3(C(=O)N(C)C(=O)N(C)C3=O)C2C1 (centres undefined)	-20%
CN(C)C(=O)Oc1cc(OC(=O)N(C)C)cc([C@@H](O)CNC(C)(C)C)c1	2%
NNC(N)=O	-2%&-1%
NC[C@H](CC(=O)O)c1ccc(Cl)cc1	2%
Nc1c(C(=O)NCc2ccco2)c2nc3ccccc3nc2n1Cc1ccc(F)cc1	?
CN1CCN(c2ccc3nc(-c4ccc5nc(-c6ccc(O)cc6)[nH]c5c4)[nH]c3c2)CC1	?
COc1ccc(Cn2c(O)c(/C=N/NC(=O)c3ccccc3O)c(=O)[nH]c2=O)cc1	?
C=CCN1CC[C@]23c4c5ccc(O)c4O[C@@H]2C(=O)CC[C@]3(O)[C@H]1C5	-5%&-11%
ClCCOCOCCCl	-8%
COc1ccc(C(=O)CN2CCOCC2)cc1F	-7%
CC12CCC(=O)C=C1CCC1C2CCC2(C)C(O)CCC12 (centres undefined)	7%
CCc1ccc(NC(=O)C(C)OC(=O)c2c(C)nn(Cc3ccccc3)c2Cl)cc1 (centres undefined)	-11%
CC(=O)O.CC(=O)O.[Cd]	-11%
CN1CCN(CCOC2c3ccccc3CSc3ccc(Cl)cc32)CC1 (centres undefined)	-5%
[CH3][Hg][Cl]	?
CCOC(=O)C1(c2ccccc2)Oc2ccccc2C(c2ccc(OC)cc2)=C1C(=O)OC (centres undefined)	-12%
CCOP(=O)(OCC)C(NC(=O)c1cccc2ccccc12)C(Cl)(Cl)Cl (centres undefined)	?
ClC(Cl)=C(Cl)C(Cl)=C(Cl)Cl	-13%
N#CC(O)c1ccccc1 (centres undefined)	-1%
NC(=O)CSP(=O)(c1ccccc1)c1ccccc1	-4%
C=Cn1ccnc1P(=S)(c1c(C)nn(-c2ccccc2)c1C)c1nccn1C=C	-12%
CCN(CC)C1=NC(=[N+](CC)CC)c2ccccc21	-19%
CC(CCc1ccccc1)NC(C)C(O)c1ccc(O)cc1 (centres undefined)	-7%&-5%&-11%
CCN(CC)CCCN=Cc1c(O)n(CCc2ccc(OC)c(OC)c2)c(=O)[nH]c1=O	-9%
CC1(C)C2C[C@@H](O)[C@]3(C)C(CC[C@@]4(C)[C@H](c5ccoc5)C[C@H]5O[C@]543)[C@@]2(C)[C@@H](O)C[C@H]1O (some centres undefined)	-8%
CC(c1ccccc1)n1cncc1C(=O)O (centres undefined)	1%

Part of the list above, as labelled records:
Nc1c(C(=O)NCc2ccco2)c2nc3ccccc3nc2n1Cc1ccc(F)cc1
  HPGD block: ?
CN1CCN(c2ccc3nc(-c4ccc5nc(-c6ccc(O)cc6)[nH]c5c4)[nH]c3c2)CC1
  HPGD block: ?
COc1ccc(Cn2c(O)c(/C=N/NC(=O)c3ccccc3O)c(=O)[nH]c2=O)cc1
  HPGD block: ?

The listing continues.
compound	HPGD block
C[C@@]12CCC(Cl)C[C@H]1CCC1C2CC[C@]2(C)C(=O)CCC12 (some centres undefined)	-9%
OCC12COC3c4ccccc4C(OC1)N32 (centres undefined)	-12%
NNC(=O)c1ccc(Cl)cc1	-16%
Clc1ccc(COC(Cn2ccnc2)c2ccc(Cl)cc2Cl)c(Cl)c1 (centres undefined)	5%&-1%&-1%
CC(C)CC(=O)NC(Oc1ccc(Cl)cc1)C(Cl)(Cl)Cl (centres undefined)	-6%
CCn1c(O)c(C(c2ccccn2)c2c(O)n(CC)c(=S)[nH]c2=O)c(=O)[nH]c1=S	-8%
COc1ccc2c3c1O[C@H]1C(=O)CC[C@@]4(O)C(C2)N(CC2CC2)CCC314 (some centres undefined)	3%
CCOC(=O)C1=C(N)OC2=C(C(=O)CCC2)C12C(=O)Nc1ccccc12 (centres undefined)	-2%
CCCOC(=O)COc1cc(C)cc2oc(=O)c3c(c12)CCC3	-25%
COc1ccccc1N1CCN(Cc2c(F)cccc2F)CC1	-7%
COc1ccc(N2C(=O)CC(=O)NC2=O)cc1	1%
Nc1ccc([As](=O)(O)O)cc1	1%
CC1OC(=O)C(C(C)C)NC(=O)C(C(C)C)OC(=O)C(C(C)C)NC(=O)C(C)OC(=O)C(C(C)C)NC(=O)C(C(C)C)OC(=O)C(C(C)C)NC(=O)C(C)OC(=O)C(C(C)C)NC(=O)C(C(C)C)OC(=O)C(C(C)C)NC1=O (centres undefined)	-12%
O=C(N/N=C/c1c(O)n(CCC2=CCCCC2)c(=O)[nH]c1=O)c1ccccc1	-25%
COC(=O)c1ccccc1-n1c(C)nc2ccccc2c1=O	-7%
CCc1sc(C(=O)N2CCC3(CC2)OCCO3)cc1Br	-12%
CC/C=C\C/C=C\C/C=C\C/C=C\C/C=C\CCCC(N)=O	-7%
CNCC(O)c1ccc(O)cc1 (centres undefined)	-9%&2%&-15%
CC(C)CN1CCCC2(CCN(C(=O)c3ccncc3)CC2)C1	-7%
CC(C)c1ccc2c(c1O)CCC1C3=C(CC[C@]21C)C(=O)OC3 (some centres undefined)	-19%
CCCCn1c(O)c(C=Nc2c(C)n(C)n(-c3ccccc3)c2=O)c(=O)[nH]c1=O	-4%
CCOC(=O)c1ncn2c1[C@H]1CCCN1C(=O)c1cc(OC)ccc1-2	-14%
ClCCBr	-4%
O=c1c2cc(Cl)cc(Cl)c2nc(CN2CCOCC2)n1-c1ccccc1F	-16%
O=C1c2ccccc2C(=O)N1Cc1nc2ccccc2c(=O)n1-c1ccccn1	-7%
COc1ccc(NC(=S)NC(NC(=O)CF)C(Cl)(Cl)Cl)c([N+](=O)[O-])c1 (centres undefined)	-3%
Cc1c(N=Cc2c(O)n(Cc3ccccc3)c(=O)[nH]c2=O)c(=O)n(-c2ccccc2)n1C	?

Reprinted at random: 2 compounds from above, in no set order.
compound	HPGD block
CC/C=C\C/C=C\C/C=C\C/C=C\C/C=C\CCCC(N)=O	-7%
Clc1ccc(COC(Cn2ccnc2)c2ccc(Cl)cc2Cl)c(Cl)c1 (centres undefined)	5%&-1%&-1%

A portion of the library; count on the stated rates, not on these rows.
